# Sfp PPTase inh – blocks B. subtilis Sfp PPTase activity; Q9F4F7; Biochemical Sfp PPTase activity, qHTS; Potency, µM, without a hit: max response, negative = inhibition, usual class: inhibitors; 3.5% of 310,000 active; AID 1490; active = well fitted inhibition curve with a large enough effect; inconclusive = small, poorly fitted or top-dose-only effect, or another doubt; inactive = no such curve, though single readings can be large or run the other way;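 note: the enzyme is Sfp with the accession as filed and its product quenches rhodamine fluorescence; potency is the fitted concentration of half-maximal effect; 0% = enzyme reaction without inhibitor and -100% = no enzyme wells; top concentration of the series not given in the record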
#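 Fluorescence-quenching assay: 15 nM Sfp-PPTase preincubated 15 min at room temperature with compound, then 5 uM rhodamine-CoA and 12.5 uM BHQ-2-labelled YbbR peptide added. Fluorescence (ex 525/em 598 nm) read at start and after 30 min; difference gives rate.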
# ClpP mod – qHTS Assay for Activators of ClpP; ATP-dependent Clp protease proteolytic subunit (Bacillus subtilis (strain 168)), P80244; purified B. subtilis ClpP, FRET peptide cleavage, 20 min; Potency, µM (doses to about 57.5 µM), for the others: top-dose activity change, negative = active; 1.9% of 340,000 active; active = well fitted falling curve with a large enough effect; inconclusive = small, poorly fitted or top-dose-only effect; inactive = no such curve, though single readings can be large or run the other way; note: potency is the fitted concentration of half-maximal effect; the source files actives as falling curves though it sought activators and does not explain the sign; nearly all actives have a fitted effect of over 65% in size; many hits overshoot -100%
# Target sequence (P80244 whole entry, looked up): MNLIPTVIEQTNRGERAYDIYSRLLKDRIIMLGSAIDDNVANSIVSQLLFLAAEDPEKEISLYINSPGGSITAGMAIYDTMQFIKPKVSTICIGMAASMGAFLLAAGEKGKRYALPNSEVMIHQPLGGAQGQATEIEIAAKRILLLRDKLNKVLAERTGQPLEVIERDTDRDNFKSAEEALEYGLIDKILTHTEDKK
#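 FRET quenching reversal measured ClpP activation: 10 microg/mL B. subtilis ClpP at pH 8 with the FRET-FV decapeptide, read at 430 nm after 320 nm excitation. The 20-min minus 0-min signal was scaled between DMSO/no-enzyme wells and ADEP (5.8 microM final).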
# TRPV1 PAM – human TRPV1 potentiation | 0.02% of 320,000 active | TRPV1-expressing cells, Fluo-8 calcium influx, capsaicin EC20 potentiation; host cell line not named in the record; control for the full effect not named in the record | potentiation, % at 8.33 µM | Q8NER1; active means potentiation above 80%; inconclusive means 30% to 80%; inactive means below 30%; note: 0% is about no effect
# Target sequence (Q8NER1 whole entry, looked up): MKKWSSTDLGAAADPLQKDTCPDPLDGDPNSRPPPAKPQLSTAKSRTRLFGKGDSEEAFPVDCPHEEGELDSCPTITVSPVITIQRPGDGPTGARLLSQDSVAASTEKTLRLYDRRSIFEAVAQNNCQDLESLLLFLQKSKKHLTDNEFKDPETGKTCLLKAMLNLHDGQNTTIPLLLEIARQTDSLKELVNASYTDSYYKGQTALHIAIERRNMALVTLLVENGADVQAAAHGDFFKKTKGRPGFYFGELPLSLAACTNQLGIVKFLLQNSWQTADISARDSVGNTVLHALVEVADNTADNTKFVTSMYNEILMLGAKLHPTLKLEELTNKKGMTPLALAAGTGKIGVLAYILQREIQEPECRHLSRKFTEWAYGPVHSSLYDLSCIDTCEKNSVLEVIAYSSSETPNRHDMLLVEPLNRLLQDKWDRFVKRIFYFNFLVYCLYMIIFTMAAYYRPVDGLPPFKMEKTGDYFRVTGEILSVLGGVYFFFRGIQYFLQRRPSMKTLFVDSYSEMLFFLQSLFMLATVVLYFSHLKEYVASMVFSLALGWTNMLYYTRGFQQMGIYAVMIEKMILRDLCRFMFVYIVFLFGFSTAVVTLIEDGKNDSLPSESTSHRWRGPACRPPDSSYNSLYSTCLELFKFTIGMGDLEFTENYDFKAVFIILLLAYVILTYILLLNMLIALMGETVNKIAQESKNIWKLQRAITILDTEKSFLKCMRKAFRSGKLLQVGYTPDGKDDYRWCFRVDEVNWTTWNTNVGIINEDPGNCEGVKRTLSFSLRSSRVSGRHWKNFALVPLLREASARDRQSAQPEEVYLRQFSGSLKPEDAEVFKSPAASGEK
#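 Cells expressing TRPV1 were dye-loaded with Fluo-8 and read kinetically: 10 s baseline, 3 min after compound (agonist portion), then 2 min after EC20 capsaicin (allosteric enhancer portion). Calcium-bound dye fluorescence at 480/520 nm.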
# gsp antag – gsp mutant antagonism. gsp-mutant cells, cAMP HTRF, 30 min; control for the full effect not named in the record. Potency, µM (highest dose often 76.9 µM), inactives show at the top dose activity change, negative = inhibition, hits mostly inhibitors. 0.4% of 340,000 active; active = falling curve of any shape with a large fitted effect; inconclusive = falling curve, mostly with a smaller effect; inactive = flat or rising curve; cell line not stated here;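 note: intracellular cAMP measured with PDE inhibitor Ro 20-1724 present during compound exposure; potency is the fitted concentration of half-maximal effect; % is set by controls: 0 for no effect and ±100 for the full control effect; nearly all actives have a fitted effect of over 65% in size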
#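 G418-selected cells were plated in DMEM/10% FBS for 16-24 h at 37C, then treated with compounds plus the PDE inhibitor […] (300 uM solution added) for 30 min at 37C. Intracellular cAMP was measured by HTRF after 30 min lysis at room temperature.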
# Menin MLL FP FL – menin-MLL binding inhibition, fluorescein peptide; AID 1766; Fluorescence polarization, fluorescein-MLL peptide displacement from menin; 290,000 tested, under 10 active; FP activity change, % at 61.4 µM; inconclusive = falling polarisation curve, or a change in total fluorescence; inactive = total fluorescence flat and polarisation flat or rising; no compound was filed as active; the % refers to the polarisation; negative = inhibition;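 note: % of control where 0% means no effect; inhibitors lower the polarisation; unlabelled MLL peptide was the positive control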
# CtBP-E1A blk – blocks the CtBP interaction with E1A | AlphaScreen GST-E1A/His-CtBP binding, 1536-well; hits give low values; control for the full effect not named in the record | activity change, % (test concentration not listed) | 0.49% of 340,000 active | AID 651724; in the data active means activity change below about -65%; inconclusive means about -30% to -65%; inactive means above about -30%; note: % is set by controls: 0 for no effect and ±100 for the full control effect; compound concentration not given in the record
#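 AlphaScreen with 125 nM GST-E1A and 125 nM His-CtBP (5X stocks) in Tris pH 8.0, 300 mM NaCl, BSA, Tween 20, TCEP. Compounds preincubated 2 h at 37 deg C, then glutathione donor/nickel acceptor beads added for 1 h at 37 deg C in dark.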
# gsp ag – activates gsp, the McCune-Albright syndrome mutation; gsp mutant cells, cAMP HTRF, 30 min; control for the full effect not named in the record; Potency, µM (top dose mostly 76.9 µM), without a hit: top-dose activation (cAMP increase), actives largely listed as activators; 0.13% of 340,000 active; AID 624287; active = well fitted activation curve with a large enough effect; inconclusive = small, poorly fitted or top-dose-only effect, or another doubt; inactive = no such curve, though single readings can be large or run the other way; cell line not stated here;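 note: phosphodiesterase inhibitor Ro 20-1724 added with compounds to block cAMP breakdown; potency is the fitted concentration of half-maximal effect; nearly all actives have a fitted effect of over 60% in size; about a fifth of the inactives were tested at one dose only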
#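 Cells stably selected in G418 were plated at 2000/well, grown 16-24 hr, then given compounds in DMSO with the PDE inhibitor […] (300 uM solution added) for 30 min at 37C; cAMP was read by HTRF.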
# Active calls of the source: *; ? = inconclusive; . = not tested or not shown; & = joins results of further samples; [ ] = another dose, or the depositor's remark. This is a random part of the collection; about 5.3% have a hit in one of these screens.
smiles	Sfp PPTase inh	ClpP mod	TRPV1 PAM	gsp antag	Menin MLL FP FL	CtBP-E1A blk	gsp ag
Cc1cc(C(=O)N/N=C/c2cccc(OC(=O)c3cccc(Br)c3)c2)n[nH]1	14%	0.2%	27	-11%	.	0	17%
CCCCn1c2nc3ccccc3nc2c2c(=N)oc(C)nc21	13%	?	1	0%	?	9	-10%
Cc1cc(OCC(=O)Nc2ccc(CN3CCOCC3)cc2)c2c(C)c(C)c(=O)oc2c1	3%	4.2%	1	-10%	.	.	24%
COc1ccc(C)cc1S(=O)(=O)Nc1ccc(-n2c(C)nc3ccccc3c2=O)cc1	.	68%	5	1%	.	-12	2%
Cc1cc(=O)n(C(C)c2ccccc2)n1C(C)c1ccccc1 (stereo not given)	.	-26%	.	-1%	.	-6	-4%
Cc1c(Cc2ccccc2)c(=O)oc2cc(O)ccc12	-2%	3.8%	1	1%	1.0	1	?
COc1ccc(C(C(=O)Nc2ccc(C(C)C)cc2)N(Cc2ccco2)C(=O)CC2NC(=O)NC2=O)cc1 (stereo not given)	-17%	.	15	-10%	9.3	4	-3%[15.4 µM]
COc1ccc(Cn2nnnc2C(c2ccccc2Cl)N2CCN(C3CCCC3)CC2)cc1 (stereo not given)	-4%	-6.8%	2	-17%	-0.2	-5	-1%
O=C(Nc1ccc(N2CCN(C(=O)c3ccco3)CC2)cc1)c1cccs1	4%	1.3%	19	?	-0.4	-11	-1%
CCn1cc(C(=O)NCC(C)C)c(=O)c2cc(F)c(N3CCN(C(=O)c4ccco4)CC3)cc21	6%	.	0	-12%	3.1	-3	5%
COc1ccc(CC(=O)N2CC3(C)CC2CC(C)(C)C3)cc1 (stereo not given)	-2%	0.6%	-12	-4%	2.9	23	-14%
COc1ccc(C(=O)Nc2ccc(C(=O)N3CCOCC3)cc2)cc1OC	10%	.	14	0%	5.3	-9	-5%[15.4 µM]
CCOCCCn1c(SCC(=O)Nc2cc(OC)ccc2OC)nc2ccccc2c1=O	5%	-3.1%	-14	-9%	-2.4	.	-4%
CC(=O)Nc1ccc(C(=O)N(C)C(C(=O)Nc2ccc(C)cc2)c2ccccn2)cc1 (stereo not given)	-2%	0.8%	-5	8%	-0.3	-8	0%
CCc1ccc(-c2n[nH]nc2C2=CC(=O)C[C@H](c3ccc(F)cc3)C2)cc1	.	-2.3%	.	.	.	3	?
C[C@@H](C(=O)NCc1ccccc1)[C@@H]1C[C@@]1(C)[C@@H](NC(=O)OCc1ccccc1)c1ccccc1	5%&26%	0.0%	20	-2%	3.0&2.0	5	.
COc1ccc(/C=C2\CCC/C(=C\C=N\N(C)C)C2=O)cc1	-27%	-0.2%	1	-25%	?	.	12%
O=C(COC(=O)CNC(=O)c1ccc([N+](=O)[O-])o1)Nc1ncc(Cl)cc1Cl	.	-1.2%	14	1%	.	4	11%
CSc1ncnc2c1ncn2CCCN1CCN(Cc2cccc3ccccc23)CC1	.	1.1%	.	.	.	-12	?
CCCN1C(=O)CC(=O)N=C1SCC(=O)Nc1ccccc1F	.	-1.7%	.	-20%	.	.	18%
CCOc1ccc([C@@H]2CC=C(C(=O)O)[C@H](c3ccc(Cl)cc3)N2S(=O)(=O)c2ccc(C)cc2)cc1	.	-2.7%	6	-18%	.	-19	14%
CO/N=C1\CCn2c1c(C)c1ccccc12	14%	.	0	-2%	0.7	-3	26%
Cc1ccc(S(=O)(=O)NCC(=O)OCC(=O)NCc2ccc(F)cc2)cc1	11%	.	2	-17%	0.4	1	-47%[inhibitor]
O=C(/C=C/c1cccc(F)c1)c1ccc(N2CCOCC2)cc1	-13%	.	-6	?	4.0	4	-5%[15.4 µM]
COc1ccccc1CNC(=O)C(=O)NCCC1CCCCN1S(=O)(=O)c1cccs1 (stereo not given)	.	6.6%	8	-2%	.	-18	-18%[15.4 µM]

# (next part)
smiles	Sfp PPTase inh	ClpP mod	TRPV1 PAM	gsp antag	Menin MLL FP FL	CtBP-E1A blk	gsp ag
Cc1cc(C)c2c(c1)cc(C)c1nnc(SCC(=O)Nc3cc(C)on3)n12	15%	-2.8%	16	-6%	-0.8	11	-6%
COc1ccc(/C=C(\C#N)C(=O)NCCCn2ccnc2)cc1	1%	.	-19	11%	5.4	-9	-53%[inhibitor]
COc1cccc(C(=O)NN2CC(O)=C(c3nc(C)cs3)C2=N)c1	10%	-1.5%	4	-16%	0.5	3	-9%
O=C1c2cccc3cc(Br)cc(c23)C(=O)N1Nc1ccc(Br)cc1	-19%	0.5%	8	-10%	-3.0	0	-5%
CCn1c(SCC(=O)Nc2cc(C)on2)nnc1-c1ccco1	0%	0.1%	1	12%	-3.6	-1	22%
O=C(Nc1ccc(Cl)c(S(=O)(=O)N2CCOCC2)c1)C1=NN(c2ccccc2)C(=O)CC1	.	0.4%	.	-8%	.	-28	-8%[15.4 µM]
O=c1c2c(nc3cc(-c4cccc(Cl)c4)[nH]n13)CCC2	11%	28µM*	-14	6%	1.0	-24	-16%
Cc1ccc(NP(=O)(c2ccc(N(C)C)cc2NC(=O)c2cccs2)N2CCOCC2)cc1 (stereo not given)	5%	-6.8%	-3	6%	4.5	5	15%
CC(=O)CC(C)(C)NC(C)=S	7%	-2.6%	-3	9%	-1.0	4	1%[15.4 µM]
Cn1c(C(=O)N2CCCC(C(=O)NCc3ccccc3)C2)cc2sccc21 (stereo not given)	17%	0.5%	-4	-5%	3.5	-1	22%
Cc1ccc(/C=N/NC(=O)c2nnn(-c3nonc3N)c2-c2ccc3c(c2)OCO3)s1	13%	-1.8%	-4	40µM*	1.9	-9	37%
Cc1ccc(S(=O)(=O)n2nccc2-c2c(-c3ccccc3)noc2C)cc1	2%	.	3	-7%	2.5	5	7%[15.4 µM]
CC(C)c1ccc(N2C(=O)CSC23C(=O)N2CCCc4cccc3c42)cc1 (stereo not given)	-14%	-5.0%	3	4%	-0.8	4	0%
Cc1ccc(S(=O)(=O)Oc2ccccc2N2C(=O)C3CC=CCC3C2=O)cc1 (stereo not given)	0%	-0.1%	-6	-12%	0.5	0	0%
CCCCCCC1CC(/C(C)=N\NC(N)=O)OC1=O (stereo not given)	8%	-1.7%	-14	0%	-0.2	-8	1%
CC1(C)C2CC=C(/C=N/NC(=O)C3CC3)C1C2 (stereo not given)	11%	.	-10	.	1.9	-15	0%[15.4 µM]
Cc1cc(NC(=O)CN2CC3CC(C2)c2cccc(=O)n2C3)nc2c1c(=O)oc1ccccc12 (stereo not given)	-2%	.	4	.	1.9	.	.
CC(C)(C)C(=O)Nc1nnc(-c2ccncc2)o1	-9%	?	?	4%	0.4	-18	0%
CCOC(=O)N1CCC(NC(=O)Cn2cc3c(n2)CCCCC3)CC1	10%	-3.7%	-21	6%	-0.7	0	-13%
COC(=O)c1sc2nc(C)c([N+](=O)[O-])c(C)c2c1N	7%	.	4	-2%	-0.1	-19	-2%
COc1cc(CCC(=O)Nc2cnc3ccccc3c2)cc(OC)c1OC	0%	-3.7%	10	-2%	33[activator]	.	-11%
CN1C(=O)C(CC(=O)NC2CCCCC2)N(C)C1=O (stereo not given)	17%	0.1%	12	10%	4.2	1	-4%[15.4 µM]
Cc1ccc(S(=O)(=O)Nc2cc(C)cc(CCNC=O)c2C)cc1	.	-0.6%	.	0%	.	17	-15%
CC1CCCCN1C(=O)CSc1nnc(Cc2ccccc2)n1C (stereo not given)	26%	0.8%	11	-5%	3.9	-2	-66%[inhibitor]
COc1ccc(S(=O)(=O)N2CCN(C(=O)c3c(C)nn(-c4ccccc4)c3Cl)CC2)cc1	5%	-3.3%	-16	-7%	-1.4	1	8%

# Additional compounds
smiles	Sfp PPTase inh	ClpP mod	TRPV1 PAM	gsp antag	Menin MLL FP FL	CtBP-E1A blk	gsp ag
Cc1ccc(NC(=O)CSc2nc(=O)n(CCCN3CCOCC3)c3c2CCCC3)cc1F	.	32µM*	-18	0%	.	-25	3%[15.4 µM]
O=S(=O)(Cc1cc(NCc2ccccc2)nc(-c2ccncc2)n1)c1ccccc1	15%	.	9	.	7.8	-9	-3%[15.4 µM]
COCC(=O)NCCc1ccc(S(N)(=O)=O)cc1	14%	-0.8%	4	9%	2.4	-1	-31%[inhibitor]
CCCn1c(=O)c(C(=O)NCc2ccccc2Cl)c(O)c2ccccc21	1%	1.0%	-20	-1%	-2.0	1	6%[15.4 µM]
CC(=O)N1CCN(c2nc(CC(C)C)c3c(c2C#N)CCC3)CC1	-4%	-2.2%	21	?	-3.8	0	4%[15.4 µM]
CCOc1ccc(OCCC(=O)N2CCN(S(=O)(=O)c3ccc(F)cc3)CC2)cc1	.	1.4%	19	-22%	.	0	-27%
Cn1nc(C(=O)OCC(=O)Nc2ccc(Cl)cc2Cl)c2ccccc2c1=O	.	-3.0%	3	-8%	.	.	17%
COC(=O)c1cccc(NC(=O)CC2C(=O)NCCN2C(=O)c2ccc(F)cc2F)c1 (stereo not given)	-2%	.	.	8%	1.3	6	12%
CC(=O)Nc1ccc(S(=O)(=O)NCC(=O)OCC(=O)NCc2ccc3c(c2)OCO3)cc1	.	1.0%	.	-11%	.	0	-4%[15.4 µM]
CCOC(=O)N1CCN(c2c(NCCN(C)Cc3ccccc3)c(=O)c2=O)CC1	7%	2.2%	6	-2%	-1.6	1	8%
COc1cccc(/C=N/NC(N)=S)c1OCc1cccc(Cl)c1	-9%	.	?	-5%	5.2	-8	-3%[15.4 µM]
CCn1cc(C(=O)OCC(=O)Nc2cccc(Cl)c2Cl)c(=O)c2ccc(C)nc21	2%	.	0	7%	-3.4	2	3%
Cc1cc(N2CCC(C)CC2)nc2ccc(N3C(=O)CCC3=O)cc12	-22%	40µM*	5	-2%	4.8	3	15%
O=C(NCc1ccco1)c1nnc(Cc2ccc(Cl)cc2)o1	-2%	2.2%	-17	9%	1.5	2	-9%
COc1ccc(N2CCN(C(=O)CS(=O)Cc3nc(-c4ccc(OC)c(OC)c4)oc3C)CC2)cc1 (stereo not given)	1%	-26%	4	-14%	.	5	-7%
CCOc1ccc(NC(=O)c2ccc(NC(=S)NC3CCCCC3)cc2)cc1	10%	.	15	6%	-1.2	6	-45%[inhibitor]
